High-throughput results as filed in PubChem BioAssay.
D2 agonist: human D2 receptor agonism in beta-arrestin assay; DiscoveRx PathHunter D2 beta-arrestin, luminescence, 90 min; 100% = 57 uM dopamine signal; activation, % (concentration not given with the values); 360,000 compounds, 0.084% hits; in the data active = activation above about 40%; inconclusive = about 15% to 40%; inactive = below about 15%; note: the text of the record calls up to 30% inactive
Target sequence (P14416 whole entry, looked up): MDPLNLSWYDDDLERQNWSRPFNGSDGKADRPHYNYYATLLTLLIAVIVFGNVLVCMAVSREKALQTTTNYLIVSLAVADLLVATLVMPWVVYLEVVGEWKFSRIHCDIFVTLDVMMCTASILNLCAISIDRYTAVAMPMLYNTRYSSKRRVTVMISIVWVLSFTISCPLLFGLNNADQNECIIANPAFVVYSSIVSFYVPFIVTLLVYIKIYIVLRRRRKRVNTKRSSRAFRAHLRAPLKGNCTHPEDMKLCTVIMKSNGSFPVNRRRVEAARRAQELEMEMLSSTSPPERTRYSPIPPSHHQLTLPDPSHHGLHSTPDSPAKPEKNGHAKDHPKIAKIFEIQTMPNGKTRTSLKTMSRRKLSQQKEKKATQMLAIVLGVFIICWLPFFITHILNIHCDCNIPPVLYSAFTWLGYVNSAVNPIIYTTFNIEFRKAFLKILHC
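DiscoveRx PathHunter D2 beta-arrestin cells (2,100/well) attached overnight, then compound-stimulated 90 min at 37 C in HBSS/10 mM HEPES/0.1% Tween-20 buffer; beta-galactosidase complementation read by luminescence after 1 h at ambient temperature. Dopamine 57 uM final (EC100) as control.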
TRPML1 agonist: activates the human TRPML1 channel. AID 624414. Q9GZU1. activation, % (no concentration beside the values). 410,000 compounds, 0.12% hits. TRPML1-expressing cells, Ca2+ dye fluorescence, FDSS; host cell line not named in the record; reference of the full effect not given here; in the data active = activation above about 50%; inconclusive = about 30% to 50%; inactive = below about 30%; note: 0% is about no effect; the text of the record puts the active cut at 80%
Target sequence (Q9GZU1 whole entry, looked up): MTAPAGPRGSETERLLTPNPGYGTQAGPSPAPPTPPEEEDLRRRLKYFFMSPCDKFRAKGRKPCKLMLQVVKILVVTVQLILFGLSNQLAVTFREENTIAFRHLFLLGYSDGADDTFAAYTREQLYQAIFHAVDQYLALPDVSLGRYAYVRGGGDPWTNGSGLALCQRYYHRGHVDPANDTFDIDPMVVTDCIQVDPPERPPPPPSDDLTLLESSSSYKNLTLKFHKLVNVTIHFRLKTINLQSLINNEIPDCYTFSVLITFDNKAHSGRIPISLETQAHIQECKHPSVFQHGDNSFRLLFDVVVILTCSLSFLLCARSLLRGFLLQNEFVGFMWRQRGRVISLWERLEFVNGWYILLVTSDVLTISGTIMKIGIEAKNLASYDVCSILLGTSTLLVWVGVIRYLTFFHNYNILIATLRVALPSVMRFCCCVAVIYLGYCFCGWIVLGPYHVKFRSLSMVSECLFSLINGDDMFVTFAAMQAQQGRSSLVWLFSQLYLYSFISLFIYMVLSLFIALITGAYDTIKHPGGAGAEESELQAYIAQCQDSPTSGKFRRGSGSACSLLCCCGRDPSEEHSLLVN
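Cells: TRPML1-DL, 1X Tet inducer, ~16 h at 37 degrees C/5% CO2. Dye: ABD Ca8 no-wash + quencher, 45-90 min RT. Read: 10 s baseline, compound add, 110 s agonist phase; 54-4 EC80 (4uM final), 110 s antagonist phase.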
PINK1 expr mod: PINK1 expression modulation; PINK1 immunofluorescence, high-content cytometry, 24 h; 410,000 compounds, 0.2% hits; Potency, µM (titrated, usually from 76.6 µM), for inactives: at the highest dose activation (PINK1 increase), actives largely listed as activators; active = well fitted activation curve with a large enough effect; inconclusive = small, poorly fitted or top-dose-only effect; inactive = flat fitted curve, though single readings scatter; cell line not stated here;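 note: potency is the fitted concentration of half-maximal effect; % of control where 0% means no effect; nearly all actives have a fitted effect of over 65% in size; a mitochondrial uncoupler was the plate control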
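Compound titrations (5 concentrations, 24 h) on a stable cell line; DMSO and CCCP controls. Endpoint: fixed-cell PINK1 immunofluorescence with mitochondrial, cell and nuclear markers, scanned by microplate cytometer.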
D2 PAM: human D2 receptor positive allosteric modulation | DiscoveRx D2 beta-arrestin cells, luminescence, 90 min; 100% = 57 uM dopamine signal | 360,000 compounds, 0.23% hits | potentiation, % (test concentration not listed) | P14416 | AID 624464; active = potentiation of 50% or more; inconclusive = 30% to 50%; inactive = 30% or less;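 note: compound concentration not given in the record; tested on top of an EC20 dose of dopamine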
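PathHunter D2 cells, attached overnight at 37 deg C, received compound in DMSO plus dopamine at EC20 (50 nM final) for 90 min at 37 deg C. Beta-arrestin recruitment was read as luminescence after 1 h with detection reagent at ambient temperature.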
TRPML1 blocker: blocks the human TRPML1 channel. Q9GZU1. TRPML1-inducible cells, Ca2+ dye fluorescence, FDSS; active compounds read low; inhibition of EC80 agonist-evoked calcium signal. activity change, negative = inhibition, % (no concentration beside the values). 390,000 compounds, 0.02% hits. AID 624415; in the data active means activity change below about -50%; inconclusive means about -30% to -50%; inactive means above about -30%;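 note: stimulus is agonist 54-4 at its EC80 concentration; % is set by controls: 0 for no effect and ±100 for the full control effect; compound concentration not given in the record; the text of the record puts the active cut at -80%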
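Tet-induced TRPML1-DL cells loaded with Ca8 no-wash calcium dye were read kinetically on FDSS. Compound addition was followed by EC80 agonist 54-4 (4 uM final); inhibition was read over 110 s.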
Six1-Eya2 blk: Six1/Eya2 interaction inhibition; 360,000 compounds, 0.56% hits; AlphaScreen GST-Six1/His-Eya2 binding, biochemical; active compounds read low; control for the full effect not named in the record; Q15475+O00167; AID 651725; activity change, % (concentration not given with the values); in the data active = activity change below about -65%; inconclusive = about -30% to -65%; inactive = above about -30%; note: % is set by controls: 0 for no effect and ±100 for the full control effect
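Compounds are tested against tagged Six1 and Eya2 proteins bridged by glutathione donor and nickel acceptor beads; after a one-hour incubation at 37 °C without light, AlphaScreen emission is recorded.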
* = called active by the depositor; ? = inconclusive; . = not tested or not shown; [ ] = dose if it differs, or a comment.

(1) CCN(C[C@H]1N[C@@](Cc2ccccc2)(C(=O)OC)[C@H]2C(=O)N(Cc3ccccc3)C(=O)[C@@H]12)S(=O)(=O)c1ccc(C(C)(C)C)cc1
(2) CCCNC(=O)C(CC)NS(=O)(=O)c1ccc(OC)cc1 (configuration not stated)
(3) CC1CN(Cc2cc(=O)oc3cc(O)c(Cl)cc23)CC(C)O1 (configuration not stated)
(4) Cc1cccc(Cn2cc(C(=O)c3ccccc3)c(=O)c3cc4c(cc32)OCO4)c1
(5) O=C(Nc1cc(Cl)cc(Cl)c1)c1ccc(F)c(S(=O)(=O)N2CCCC2)c1
(6) Clc1ccc(CN=C2Nc3ccccc3CS2)cc1
Assay by compound	1	2	3	4	5	6
D2 agonist	-0.4	-2.4	6.8	.	.	-5.0
TRPML1 agonist	1.0	-1.4	0.4	0.8	2.1	-0.1
PINK1 expr mod	-0.4%	0.7%	0.9%	-1.7%	12%	7.5%[38.3 µM]
D2 PAM	.	11	-4	.	.	-25
TRPML1 blocker	-21	-4	-10	6	38	3
Six1-Eya2 blk	-2	-3	1	.	.	6

(7) CC(Nc1cc(N2CCNCC2)ccc1[N+](=O)[O-])c1ccccc1 (configuration not stated)
(8) CCN(Cc1ccccc1)S(=O)(=O)c1cc2c3c(c1)CCN3C(=O)CC2
(9) CCOC(=O)c1c(C)oc2c1c(C=NCCO)c(O)c1ccccc12
(10) Nc1ccc(C(=O)N2CCN(S(=O)(=O)c3ccc4c(c3)OCCO4)CC2)cc1[N+](=O)[O-]
(11) CCOc1ccccc1NC(=O)COC(=O)c1cc(C)oc1C
(12) CC(=O)N(C1=C(N2CCOCC2)C(=O)c2ccccc2C1=O)c1ccc(C(=O)O)cc1
Assay by compound	7	8	9	10	11	12
D2 agonist	-2.7	-2.1	8.2	-2.0	1.3	?
TRPML1 agonist	1.9	0.1	-0.3	-0.3	0.3	0.5
PINK1 expr mod	8.3%	2.1%	3.4%	-0.3%	11%	0.7%
D2 PAM	-23	-2	20	1	-6	14
TRPML1 blocker	-19	2	12	7	6	9
Six1-Eya2 blk	-18	5	-24	-8	3	3

(13) CCCCNC(=O)CSc1nc2ccc(Nc3nc(N4CCOCC4)nc(N4CCOCC4)n3)cc2s1
(14) COc1ccc(C2CC(c3ccccc3)=NN2c2ccc(S(N)(=O)=O)cc2)cc1OC (configuration not stated)
(15) Cc1cc(C)c2nc3sc(C(=O)N4CCOCC4)c(N)c3cc2c1
(16) CC(O)(c1ccccc1)c1nc(-c2cccc(C(=O)O)c2)cs1 (configuration not stated)
(17) CCOC(=O)CSc1nc2ccccc2n1C(=O)OCC
(18) Cc1c(Cl)cccc1NC(=O)CC1SCCNC1=O (configuration not stated)
Assay by compound	13	14	15	16	17	18
D2 agonist	-5.4	0.8	-10	-3.4	0.5	-1.8
TRPML1 agonist	0.2	0.3	10	0.3	0.2	0.8
PINK1 expr mod	2.4%	-2.2%	1.5%	0.7%	-2.8%	2.4%
D2 PAM	-3	0	-11	-1	-19	-5
TRPML1 blocker	2	12	-7	.	-1	-13
Six1-Eya2 blk	-3	30	4	4	4	-2

(19) O=C(CC[C@H]1O[C@@H](n2cnc3c(NC(=O)c4ccccc4)ncnc32)[C@H](O)[C@@H]1O)NCc1cccc2ccccc12
(20) C=CCN(C(=O)CNC(=O)c1ccco1)C(C(=O)NC1CCCCC1)c1ccc(OC)cc1OC (configuration not stated)
(21) CCOc1ccc(C(=O)N/N=C/c2cc([N+](=O)[O-])cs2)cc1
(22) Cc1csc(NC(=O)CCNS(=O)(=O)c2ccc3c(c2)c(=O)n(C)c(=O)n3C)n1
(23) COC(=O)[C@]1(Cc2ccccc2)N[C@H](CN(C)C(=O)Nc2ccccc2)[C@@H]2C(=O)N(C)C(=O)[C@@H]21
(24) Cc1cc(C)cc(C(O)c2ncc(-c3ccccc3F)[nH]2)c1 (configuration not stated)
Assay by compound	19	20	21	22	23	24
D2 agonist	-3.9	-2.7	-2.5	-1.4	-0.4	-4.1
TRPML1 agonist	-0.6	-0.5	0.7	0.5	-0.1	0.2
PINK1 expr mod	0.6%	0.7%	1.9%	-6.7%[38.3 µM]	-1.0%	0.5%
D2 PAM	-5	-26	-4	-4	.	-2
TRPML1 blocker	.	-6	-23	0	-12	.
Six1-Eya2 blk	-4	4	-24	0	4	10

The list goes on; the last two above are carried over.
(23) COC(=O)[C@]1(Cc2ccccc2)N[C@H](CN(C)C(=O)Nc2ccccc2)[C@@H]2C(=O)N(C)C(=O)[C@@H]21
(24) Cc1cc(C)cc(C(O)c2ncc(-c3ccccc3F)[nH]2)c1 (configuration not stated)
(25) CS(=O)(=O)N1CCc2cc(S(=O)(=O)N3CCCCC3)ccc21
(26) CC(C)CCN1CCN(CCCn2cccn2)CC1CCO (configuration not stated)
(27) Cc1cc(=O)[nH]c(CN2CCC(c3ccccc3)CC2)n1
(28) CC(C)C1Nc2c(O)cc(Cl)c([N+](=O)[O-])c2C2C=CCC21 (configuration not stated)
(29) CCC(=O)Nc1cccc(NC(=S)NC(=O)Cc2ccccc2)c1
(30) CN(C)c1ccc(N/C(N)=N/c2nc(C(F)(F)F)cc(C(F)(F)F)n2)cc1
Assay by compound	23	24	25	26	27	28	29	30
D2 agonist	-0.4	-4.1	0.6	-2.8	-20	-8.0	-0.7	-3.9
TRPML1 agonist	-0.1	0.2	0.1	-0.1	-0.7	-0.3	-0.3	0.0
PINK1 expr mod	-1.0%	0.5%	1.8%	1.6%	-0.1%	?	0.6%	4.5%
D2 PAM	.	-2	-3	-5	-14	-10	21	-5
TRPML1 blocker	-12	.	-1	-8	6	-3	-10	32
Six1-Eya2 blk	4	10	13	10	3	-13	4	-10

(31) COCCn1c(SCc2cccc(F)c2)nc2cc(C(=O)OC)ccc2c1=O
(32) COc1ccc(C2=NN(C(=O)CSc3nc(=O)n4cccc(C)c4n3)C(c3ccc(C)cc3)C2)cc1 (configuration not stated)
(33) Cc1ccc2nc(-c3cccc(Br)c3)cc(C(=O)NC3CC3)c2c1
(34) O=C(NC1CCSc2ccccc21)c1ccc(F)cc1 (configuration not stated)
(35) CC(C)CCNC(=O)c1[nH]c(C(F)(F)F)nc1-c1ccccc1
(36) Fc1ccccc1NC(=S)NC1CCCC1
Assay by compound	31	32	33	34	35	36
D2 agonist	-2.9	-2.6	-3.6	-1.4	-3.4	-2.6
TRPML1 agonist	0.6	1.6	0.1	-0.7	0.2	-0.5
PINK1 expr mod	5.8%	-0.2%	13%	-1.1%	2.1%	0.6%
D2 PAM	-9	-22	-19	8	-3	-16
TRPML1 blocker	-1	-6	-4	-2	11	-17
Six1-Eya2 blk	5	-7	1	-1	-11	5

(37) O=C(COC(=O)c1cc(S(=O)(=O)N2CCCCC2)ccc1N1CCOCC1)c1ccccc1
(38) Cn1c(=O)oc2cc(S(=O)(=O)CCC(=O)N3CCN(c4cccc(Cl)c4)CC3)ccc21
(39) Cc1onc(-c2ccncc2)c1C(=O)O
(40) Cc1ccc(SCCC(=O)OCC(=O)Nc2ccc(C(N)=O)cc2)cc1
(41) Cn1ncc2cc3c(Nc4ccc(Cl)cc4)cccc3nc21
(42) COc1ccc(CNC(=O)C(C)OC(=O)CN2C(=O)COc3ccccc32)cc1 (configuration not stated)
Assay by compound	37	38	39	40	41	42
D2 agonist	-4.2	.	-0.9	-2.4	-2.9	-5.8
TRPML1 agonist	0.1	-0.4	3.2	0.3	0.7	-1.3
PINK1 expr mod	0.1%	4.0%	2.0%	-1.7%	-0.3%	1.9%
D2 PAM	-27	.	-2	-1	0	6
TRPML1 blocker	8	68	-1	6	.	-11
Six1-Eya2 blk	-10	.	-1	-6	19	0

(43) Cc1ccc(Nc2nc(N)nc(CN3CCCCCC3)n2)cc1
(44) O=C(CCc1ccccc1)NC(=S)Nc1ccc(S(=O)(=O)N2CCOCC2)cc1
(45) COc1cc2c(cc1NC(=O)C(C)NCc1ccccc1)oc1ccccc12 (configuration not stated)
(46) CN(C)c1ccc(C(CNC(=O)c2ccccc2)N2CCc3ccccc32)cc1 (configuration not stated)
(47) Cc1cc2c(cc1S(=O)(=O)N(C)c1ccccc1)NC(=O)CO2
(48) O=C1CSC(=S)N1/N=C/c1ccc(O)c([N+](=O)[O-])c1
Assay by compound	43	44	45	46	47	48
D2 agonist	-1.3	-4.0	-3.0	.	2.4	-8.7
TRPML1 agonist	-1.1	1.3	-0.1	2.2	-0.2	-0.6
PINK1 expr mod	-1.0%	13%	1.2%	-1.1%	0.3%	2.2%
D2 PAM	14	-11	-32	.	11	-15
TRPML1 blocker	5	-5	4	-4	1	-3
Six1-Eya2 blk	-28	-3	13	.	3	?

(49) CC(C)C[C@H]1CN=C(Nc2ccccc2)N1CC1CCCCCC1
(50) O=C(CSCc1cc(=O)c2cc(F)ccc2[nH]1)Nc1ccccc1Cl
(51) Cc1ccc(-c2csc(/C(C#N)=C/Nc3ccccc3SC(F)(F)F)n2)cc1
(52) CCN(CC)c1ccc(C2N(C(=O)N3CCOCC3)CCN2S(=O)(=O)c2ccc(C)cc2)cc1 (configuration not stated)
(53) COC(=O)C(C)(C)ONC(=O)Nc1ccc(Br)cc1
(54) CC(C)CCNC(=O)C(=O)NCC1OCCCN1S(=O)(=O)c1cccs1 (configuration not stated)
Assay by compound	49	50	51	52	53	54
D2 agonist	-1.2	.	-7.0	-0.9	-1.6	1.0
TRPML1 agonist	-0.2	3.2	1.5	1.0	0.9	0.2
PINK1 expr mod	25%	1.2%	5.4%	-2.4%[38.3 µM]	2.6%	0.4%
D2 PAM	-18	.	-5	-6	1	3
TRPML1 blocker	-1	13	-10	13	-22	5
Six1-Eya2 blk	-2	.	4	-17	13	3

(55) COc1cc(CCNC(=O)c2cnn3ccccc23)cc(OC)c1OC
(56) Cc1nn(-c2ccccc2)c(CC(C)(C)C(=O)O)c1C(=O)O
(57) Cc1ccc(NC(=O)N2CCC(=O)N2)cc1
(58) COCCN(C(=O)CC1CCCCC1)c1c(N)n(CC(C)C)c(=O)[nH]c1=O
Assay by compound	55	56	57	58
D2 agonist	-4.1	-0.9	-4.3	-4.2
TRPML1 agonist	-1.0	-0.8	0.2	0.7
PINK1 expr mod	7.0%	-1.8%	-2.2%	-0.6%
D2 PAM	-4	-3	-8	-3
TRPML1 blocker	-10	7	3	-1
Six1-Eya2 blk	0	11	1	4
